LT uptake inh = blocks cellular internalization of anthrax lethal toxin | Cells, anthrax lethal toxin internalization, FRET ratio (460/530) | Potency, µM (top dose mostly 40 µM), without a hit: at the top dose activity change, negative = inhibition, usual class: inhibitors | actives 0.67% (n = 70,000) | AID 912; active = well fitted falling ratio curve with the 530 nm signal flat; inconclusive = other ratio curves, or a change in one channel alone; inactive = flat curves in the ratio and both channels; the % refers to the ratio; further: on the % scale 0 is the no-effect control and ±100 the full control effect; nearly all actives have a fitted effect of over 50% in size; tested in ME-180 cells; beta-lactamase reporter
SmPrx2 inh = blocks S. mansoni peroxiredoxin 2 enzymatic activity | S. mansoni Prx2 activity coupled to TGR/GSH (TGR is thioredoxin glutathione reductase), NADPH fluorescence loss, qHTS; some inactives read as strong as hits | Potency, µM | actives 0.07% (n = 65,000); active means full or partial inhibition curve with a strong effect at the top dose; inconclusive means weaker partial or single-point curve; inactive means no accepted curve; further: series up to 57 µM; many of its hits are not listed in these tables
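qHTS, coupled TGR/Prx2 format; 15 min compound preincubation at RT; reaction started with H2O2 (2.5 mM aliquot); kinetic NADPH fluorescence decrease, ex 365/em 450 nm.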
The depositor's hits bear a star; ? = inconclusive; · = no result given; & = joins results of further samples; [ ] = another dose, or the depositor's remark. Potency means the concentration at half of the fitted maximal effect. This is a subset; the hit share may differ from the screen's.

SMILES	LT uptake inh	SmPrx2 inh
c1cc(-c2nnc3n2CCC3)[nH]n1	-3%	>57
Cc1ccc(S(=O)(=O)N2CCCCC2)cc1C(=O)c1nccn1C	-18%	>57
Cc1cccc2sc(NC(=O)CN(C)S(=O)(=O)c3cccs3)nc12	-17%	>57
c1ccc(-c2noc(-c3ccncc3)n2)nc1	0%	·
COc1ccc(N=[N+]([O-])c2ccc(OC)cc2)cc1	-8%	·
Cc1nc2c(ccc3nc(NC(=O)c4ccc5c(c4)OCCO5)sc32)s1	?	>57
Brc1ccc(-c2nc(-c3cccnc3)no2)o1	·	>57
CCCC1(C(=O)OC)NC(c2ccco2)C2C(=O)N(c3ccc(C)cc3)C(=O)C21 (stereo not given)	-8%	>57
CCc1ccccc1N(CC(=O)O)S(C)(=O)=O	7%	>57
COc1ccccc1N1CCN(CC(=O)Nc2cc(C)nn2-c2nc(C)cc(C)n2)CC1	0%	>57
CC[C@H](CN(C)C)C(=O)c1ccco1	0%[8 µM]	>57
COCCCNC(=O)CN(c1cccc(Cl)c1C)S(C)(=O)=O	-6%	>57
CC[C@@H](c1ccccc1)n1c(=O)n2n(c1=O)[C@H]1[C@H](O)[C@H]3O[C@@H]3/C(=N/OCc3ccccc3)[C@@H]1CC2	-7%[8 µM]	·
CCn1c(SCC(=O)c2ccccc2)nnc1-c1cnccn1	·	>57
CCOC(=O)N/N=C1/C[C@@H](O)[C@@H](O)[C@@H]2[C@@H]3C(=O)N(C(C)(C)C)C(=O)[C@H]3CC[C@H]12	0%[8 µM]	·
Cc1nnc(NC(=O)CN2C(=O)c3ccccc3S2(=O)=O)s1	5%	>57
CC(=O)c1ccccc1OCC(O)CN1CCN(C(c2ccccc2)c2ccccc2)CC1 (stereo not given)	-25%	>57
Cn1cccc1C(=O)N1CCC2(CCCN(C(=O)Nc3cccc(C#N)c3)C2)CC1	?	>57
COC(=O)c1c(N)n(Cc2ccc(OC)cc2)c2nc3ccccc3nc12	?	>57
CCOC(=O)c1c(C)c(C(=O)Nc2ccccc2)c(C)n1CC	-22%	>57
Cc1ccc(Nc2nc(N)nc(CN3CCN(c4ccccc4)CC3)n2)cc1Cl	?	>57
O=C1CC(C(=O)N(CC2CCCO2)C(C(=O)NC2CCCCC2)c2ccncc2)CS1 (stereo not given)	15%	>57
O=C(NC1CCCCC1)C(c1ccncc1)N(CC1CCCO1)C(=O)C(F)(F)F (stereo not given)	-2%	>57
O=S(=O)(NCc1ccncc1)c1ccc(S(=O)(=O)NCC2CCCO2)cc1 (stereo not given)	2%	>57
O=C(NCc1ccco1)C12CC3CC(C1)CC(C(=O)NCc1ccco1)(C3)C2	-1%	·
CCOC(=O)CNC(=O)CN1CCCN(S(=O)(=O)c2ccc(Br)s2)CC1	17%	>57
O=S(=O)(c1ccc2nc(COc3ccccc3)[nH]c2c1)N1CCOCC1	-1%	>57
Cc1ccccc1CN1CCN(CC(=O)NCc2ccc3c(c2)OCO3)C1=O	0%	>57
CCC(C)(C)n1nnnc1C(c1cc2cc3c(cc2[nH]c1=O)OCO3)N1CCN(C)CC1 (stereo not given)	-9%	>57
O=C(Cn1ncc2c3ccccc3n(Cc3cccc(Cl)c3)c2c1=O)N1CCC2(CC1)OCCO2	3%	>57
COC(=O)[C@@H]1C[C@H]1[C@@H](NS(=O)(=O)c1ccccc1)c1ccccc1	?	>57
c1cncc(C2Nc3ccccc3-c3nc4ccccc4n32)c1 (stereo not given)	4%	>57
CCn1c(=O)c(=O)[nH]c2cc(C(=O)Nc3ccc(S(=O)(=O)N4CCCC4)cc3)ccc21	?	>57
CCOC(=O)c1cc(-c2ccc(C)cc2)n(CC(=O)NCc2ccco2)c1C	6%	>57
C[C@@H]1O[C@@H](O)[C@@H](O)[C@H](O)[C@H]1O	5%[8 µM]	>57
COc1cccc(-c2cc(C(=O)Nc3c(C)nn(Cc4ccccc4)c3C)no2)c1	?	>57
CCn1c(Cc2ccc(OC)cc2)nnc1SCC(=O)Nc1nc2ccccc2s1	0%	>57
COc1ccc(CCNC(=O)CN2CCCc3ccccc32)cc1OC	?	>57
CC1CN(C(=O)Cc2ccc(-c3ccccc3)cc2)CC(C)O1 (stereo not given)	?	>57
Cc1ccccc1Cn1nc(C)c(NC(=O)c2noc3c2CC(C(C)(C)C)CC3)c1C (stereo not given)	?	>57

One compound at a time, as listed above:
Entry for O=S(=O)(c1ccc2nc(COc3ccccc3)[nH]c2c1)N1CCOCC1 : LT uptake inh: -1%; SmPrx2 inh: >57
Entry for C[C@@H]1O[C@@H](O)[C@@H](O)[C@H](O)[C@H]1O : LT uptake inh: 5%[8 µM]; SmPrx2 inh: >57

(continued)
SMILES	LT uptake inh	SmPrx2 inh
CC(C)CCNC(=O)CN(Cc1ccc2c(c1)OCO2)C(=O)CCC(=O)Nc1ccccn1	13%	>57
NNC(=O)CNc1cccc(Br)c1	4%[8 µM]	>57
Cc1ccccc1NC(=O)Cn1c(=O)n(C)c2ccccc21	-10%	>57
c1ccc2c(CCNC3=NCCC3)c[nH]c2c1	0%	>57
COc1ccc(NCc2nnc(SCC(=O)Nc3cccc(C)c3)o2)cc1	-26%	>57
Cc1ccc(-c2nc(=S)c3c(n2CCN2CCOCC2)CC(C)(C)OC3)cc1	?	>57
CCOC(=O)NC1(C(F)(F)F)N=C(c2ccccc2)NC1=O (stereo not given)	1%	>57
O=C(C1=C(O)C(=O)N(CCN2CCOCC2)C1c1ccccc1)c1cccs1 (stereo not given)	-6%	>57
Fc1cccc(C2CC(c3cccc(Br)c3)Nc3nnnn32)c1 (stereo not given)	-15%	>57
COC(=O)[C@@]1(Cc2ccc(F)cc2)[C@H]2c3cc(C(=O)N(C)C)n(Cc4c(CO)[nH]cc(C)c4=O)c3C[C@H]2CN1C(=O)c1ccccc1	7%	>57
Cc1cc(=O)n2nc(-c3ccccc3)sc2n1	·	>57
O=C(NC1CCCC1)C1c2ccccc2C(=O)N1CCCN1CCOCC1 (stereo not given)	0%	>57
O=C(Cn1cc(C(=O)c2ccccc2F)c2ccccc21)NCc1ccco1	-12%	>57
Cc1c2c(nc3c(C(=O)NC4CC4)cnn13)CCCC2	-7%	>57
Cc1cc(OCCN2CCCC2)ccc1C(C)C	?	·
Cc1ccc(S(=O)(=O)Nc2cccc(-c3cn4ccsc4n3)c2)cc1	?	>57
CCOC(=O)C1CCN(C(=O)CSCCSCC(=O)N2CCC(C(=O)OCC)CC2)CC1	20%	>57
CCc1cc(=O)oc2cc(OCC(=O)N3CCc4ccccc43)ccc12	-4%	>57
CCOc1ccc(OCC)c(NC(=O)CNS(=O)(=O)c2cccs2)c1	-11%	>57
CCCCc1cc(=O)oc2cc(OCC(=O)N(CC)CC)c(Cl)cc12	-5%	>57
CC(=O)N1CCC2(CCN(Cc3ccc(C#N)cc3)CC2)CC1	?	>57
Cc1nc2ccc3nc(NC(=O)C4COc5ccccc5O4)sc3c2s1 (stereo not given)	?	>57
c1cncc([C@H]2CCCCN2)c1	0%	>57
CCOCCCNCC(=O)NC1(C)C2CCC(C2)C1(C)C (stereo not given)	-10%	>57
CC(C)(C)c1ccc(O)c(CN(Cc2cc(C(C)(C)C)ccc2O)c2ccccc2)c1	-5%[8 µM]	>57
O=C(Nc1cc(C(F)(F)F)ccc1N1CCOCC1)c1ccc2ccccc2n1	-23%	>57
CCn1c(SCC(=O)c2ccc(Cl)cc2)nnc1C(C)C	-11%	>57
CCOc1ccccc1C(=O)Nc1ccc2nc(N3CCN(c4ncccn4)CC3)cc(C)c2c1	-7%	>57
CCn1c(=O)c2c(n3cnnc13)-c1ccccc1CC21CCCCC1	-1%	>57
Nc1c(C(=O)NCc2ccco2)sc2nc3c(cc12)C(=O)CCC3	?	>57
CCOC(=O)C1=C(N)OC(C)=C(C(=O)OCCOC)C12C(=O)Nc1ccccc12 (stereo not given)	-13%	>57
COCCN1C(=O)N(c2cccc(C)c2)C(=O)C1CC(=O)Nc1ccc(F)cc1 (stereo not given)	-9%	>57
Oc1ccccc1C(Sc1nc2ccccc2s1)Sc1nc2ccccc2s1	-4%[8 µM]	>57
COc1ccccc1CCn1c(=O)c(CCc2ccccc2)nc2cncnc21	?	>57
N[C@@H](CCCCO)C(=O)O	0%[8 µM]	>57
Cc1ccc(N(C(=O)C2CCCO2)C2C=CS(=O)(=O)C2)cc1Cl (stereo not given)	4%	>57
CCn1c(SCC(=O)Nc2ccc3c(c2)c2ccccc2n3CC)nnc1-c1cnccn1	-11%	>57
CCCCn1c(CN2CCN(c3ccccc3)CC2)nc2c1c(=O)n(C)c(=O)n2C	6%	>57
CCCN1CC23C=CC(O2)C(C(=O)O)C3C1=O (stereo not given)	-3%	>57
CCCc1cc(=O)[nH]c(SCc2ccc(C#N)cc2)n1	-7%	>57

Three entries picked at random from the list so far, as already listed:
SMILES	LT uptake inh	SmPrx2 inh
Cc1ccc(N(C(=O)C2CCCO2)C2C=CS(=O)(=O)C2)cc1Cl (stereo not given)	4%	>57
CCn1c(=O)c2c(n3cnnc13)-c1ccccc1CC21CCCCC1	-1%	>57
COCCN1C(=O)N(c2cccc(C)c2)C(=O)C1CC(=O)Nc1ccc(F)cc1 (stereo not given)	-9%	>57

Arranged by heavy-atom count (largest number first): part of the list above.
SMILES	LT uptake inh	SmPrx2 inh
CCOc1ccccc1C(=O)Nc1ccc2nc(N3CCN(c4ncccn4)CC3)cc(C)c2c1	-7%	>57
CC(C)(C)c1ccc(O)c(CN(Cc2cc(C(C)(C)C)ccc2O)c2ccccc2)c1	-5%[8 µM]	>57
Cc1nc2ccc3nc(NC(=O)C4COc5ccccc5O4)sc3c2s1 (stereo not given)	?	>57
CC(=O)N1CCC2(CCN(Cc3ccc(C#N)cc3)CC2)CC1	?	>57
CCCN1CC23C=CC(O2)C(C(=O)O)C3C1=O (stereo not given)	-3%	>57

(next part)
SMILES	LT uptake inh	SmPrx2 inh
COCCn1c(SCC(=O)N2CCCc3ccccc32)nnc1-c1ccco1	-1%	>57
CN(C)C(=O)c1ccc(-c2cncnc2NC2CCNCC2)cc1	?	>57
O=C(CCn1c(=O)sc2ccccc21)NCc1cccs1	5%	>57
CCc1c(C)nc(SC)n(CC#N)c1=O	·	>57
COc1ccc(-c2cc(-n3c(C(F)(F)F)nc4ccccc43)n(CCC#N)n2)cc1	-15%	>57
O=C(Cc1coc2cc3c(cc12)CCC3)OCc1cc(=O)n2c(n1)sc1ccccc12	0%	>57
COC(=O)c1cccc(NC(=O)CSc2nc(=O)cc(N)n2-c2ccccc2)c1	6%	>57
O=C(Cn1ncc2c1-c1ccccc1OC2)N1CCN(Cc2ccc3c(c2)OCO3)CC1	-24%	>57
CCOc1ccccc1NC(=O)N1CCC(c2nc3ccc(C)cc3[nH]2)CC1	-26%	>57
CCCN1CCN(C(c2cc3cc(OCC)ccc3[nH]c2=O)c2nnnn2C2CCCCC2)CC1 (stereo not given)	-2%	>57
Cc1nnc(SCCn2c(N3CCN(c4ccccc4)CC3)nc3c2c(=O)n(C)c(=O)n3C)s1	15%	>57
NCc1nnn(Cc2ccccc2)c1N	-2%[8 µM]	>57
COc1ccc(-c2nnc(SCC(=O)Nc3ncc(C)s3)n2-c2ccccc2)cc1OC	3%	>57
COc1cccc(-n2c(C)nc3c(cnn3-c3ccc(C)cc3)c2=O)c1	-9%	>57
CCn1c(=O)cc(OCC(=O)NCc2cccnc2)c2ccccc21	-12%	>57
COCCNC(=O)c1c(N)n(-c2cccc(C)c2)c2nc3ccccc3nc12	?	>57
O=C(CCCC1=NS(=O)(=O)c2ccccc2N1)N1CCN(c2ccc(Cl)cc2)CC1	?	>57
NC/C(=N\O)c1ccc(Cl)cc1Cl	-13%	·
O=C(O)c1cc(C(=O)C(=O)c2cc(C(=O)O)c(O)c3ccccc23)c2ccccc2c1O	10%[8 µM]	>57
CCn1c(SCC(=O)N2CCN(S(=O)(=O)c3ccccc3)CC2)nnc1-c1cccs1	-1%	>57

A second format for some results above.
Every second line gives: LT uptake inh, SmPrx2 inh
Cc1nnc(SCCn2c(N3CCN(c4ccccc4)CC3)nc3c2c(=O)n(C)c(=O)n3C)s1
  15%, >57
COCCn1c(SCC(=O)N2CCCc3ccccc32)nnc1-c1ccco1
  -1%, >57
CCn1c(=O)cc(OCC(=O)NCc2cccnc2)c2ccccc21
  -12%, >57
NCc1nnn(Cc2ccccc2)c1N
  -2%[8 µM], >57
O=C(CCCC1=NS(=O)(=O)c2ccccc2N1)N1CCN(c2ccc(Cl)cc2)CC1
  ?, >57
NC/C(=N\O)c1ccc(Cl)cc1Cl
  -13%, ·

Continuation.
SMILES	LT uptake inh	SmPrx2 inh
COc1ccccc1NC(=O)CCc1c(C)[nH]c(=O)c(C#N)c1C	6%	>57
CN(C)CCCn1c2ccccc2c2cnccc21	-26%[8 µM]	>57
C[C@@H](N=C(N)N)C(=O)O	-6%[8 µM]	>11
Cc1cc(C(=O)O)sc1C(N)C(=O)O (stereo not given)	10%	·
O=C(c1csnn1)N1CCC2(CC1)CCN(c1ccccn1)CC2	7%	>57
CC(=O)Nc1ccc(S(=O)(=O)N2CCC(N(C)CCC(C)C)CC2)cc1	-6%	>57
Cc1nn(-c2ccc(Cl)cc2)c2sc(C(=O)N3CCN(c4ccccn4)CC3)cc12	-13%	>57
CC(C)NC(=O)CCCn1c(=S)[nH]c2cc3c(cc2c1=O)OCO3	?	>57
COc1ccc(CC(NC(C)=O)C(=O)NC2CCN(c3nnnn3-c3ccccc3)CC2)cc1 (stereo not given)	5%	>57
O=C(Nn1cnnc1)c1cc2c(s1)CCCC2	-7%	>57
COCC(=O)N(CCc1ccc(OC)cc1)Cc1nc2ccccc2c(=O)[nH]1	8%	>57
NNc1nncc2ccccc12	0%[3.58 µM]	>57&>57
